Screening data as filed in PubChem BioAssay.
HPGD block – blocks human HPGD enzyme activity; hit rate 4.3% among 150,000; purified HPGD, NADH fluorescence kinetic, PGE2 substrate; P15428; Potency, µM, for inactives: top-dose activity change, negative = inhibition, hits mostly inhibitors; AID 894; active = well fitted inhibition curve with a large enough effect (not every such curve was filed as active); inconclusive = small, poorly fitted or top-dose-only effect, or another doubt; inactive = no such curve, though single readings can be large or run the other way;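 further: top concentration of the series not given in the record; plate controls included wells without enzyme; inactives centre near -10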
Target sequence (P15428 whole entry, looked up): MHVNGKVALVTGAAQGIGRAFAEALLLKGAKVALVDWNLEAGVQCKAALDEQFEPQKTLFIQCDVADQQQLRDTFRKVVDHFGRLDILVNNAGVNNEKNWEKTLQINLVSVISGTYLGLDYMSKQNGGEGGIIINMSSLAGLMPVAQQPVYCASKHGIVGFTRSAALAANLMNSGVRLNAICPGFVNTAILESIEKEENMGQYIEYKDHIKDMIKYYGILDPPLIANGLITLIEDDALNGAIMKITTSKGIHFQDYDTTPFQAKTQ
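NADH formation kinetics: reaction with 30 uM PGE2 and 1 mM NAD+ (final), 20 nM enzyme, Tris-HCl pH 8 with Tween 20, after 15 min compound preincubation at room temperature. Fluorescence change, last versus first of five reads.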
* = called active by the depositor; ? = inconclusive. On the % scale 0 is the no-effect control and ±100 the full control effect; potency means the concentration at half of the fitted maximal effect. The list is partial; rates above refer to the full screens.

HPGD block	Structure
?	CCCc1cc(=O)oc2cc(C)c3c(C)coc3c12
-6%	O=C(CC1(O)C(=O)N(CCc2ccccc2)c2ccccc21)c1ccco1 (stereo not given)
?	COC(=O)c1c(-n2cnnn2)sc(C)c1C
-4%	C/C(=N/NC(=O)c1ccoc1C)c1cccc(NC(=O)C2CC2)c1
-26%	Cc1ccc(C)n1-c1sc2c(c1C#N)CCC(C)C2 (stereo not given)
?	CCS(=O)(=O)N1Cc2ccccc2CC1C(=O)Nc1nnc(SCc2ccc(F)cc2)s1 (stereo not given)
-10%	CCSc1nsc(SCC)c1C(N)=O
-5%	Cc1cccc2cc(CN(CC3CCCO3)C(=O)c3cnccn3)c(=O)[nH]c12 (stereo not given)
-19%	O=C(CCCNS(=O)(=O)c1cccs1)N1CCc2ccccc2C1
-4%	Nc1nc(C(=O)N2CCOCC2)nn1S(=O)(=O)c1ccc(Cl)cc1
0%	CC(C)C(=O)Nc1ncc2c(n1)CC(c1cccs1)CC2=O (stereo not given)
-2%	O=C(NNC(=O)c1ccccc1-c1ccccc1C(=O)O)c1cccc([N+](=O)[O-])c1
-18%	CC(C)c1ccccc1
-3%	O=Cc1cc([N+](=O)[O-])ccc1N1CCOCC1
0%	OC(COCc1cccs1)CN1CCN(c2cccc(C(F)(F)F)c2)CC1 (stereo not given)

An excerpt of these results, in CSV form.
molecule,HPGD block
O=Cc1cc([N+](=O)[O-])ccc1N1CCOCC1,-3%
OC(COCc1cccs1)CN1CCN(c2cccc(C(F)(F)F)c2)CC1 (stereo not given),0%

Continued:
HPGD block	Structure
-2%	O=c1c2ccccc2c(-c2ccccc2)nn1Cc1c(Cl)cccc1Cl
?	CCOC(=O)c1ccc(-n2c(O)c(/C=N/NC(=O)C3COc4ccccc4O3)c3ccccc3c2=O)cc1 (stereo not given)
-29%	CCSc1nnc(-c2cccs2)o1
-4%	COc1ccc(C2(CNC(=O)c3ccc(Br)o3)CCOCC2)cc1
-7%	O=C(O)[C@@H]1[C@@H]2C[C@H]([C@@H](Br)[C@H]2N2C(=O)CCC2=O)[C@@H]1C(=O)O
22µM*	CCOC(=O)C(CC)Sc1nc2c(c(=O)[nH]c(=O)n2C)n1CCc1ccccc1 (stereo not given)
-7%	CCNc1nc(ON=C(C)C)nc(N(C)C)n1
-6%	COC(=O)C(O)C1C(C)(C)C(OC(C)=O)C2CC3=C4CC(=O)OC(c5ccoc5)[C@]4(C)CCC3[C@@]1(C)C2=O (stereo not given in full)
?	Cc1ccc(C2CC2C(=O)NNC(=S)Nc2ccc(Cl)cc2)cc1 (stereo not given)
-14%	CCCn1c(SCC(=O)c2ccc3c(c2)OCCO3)nnc1C(C)C
-3%	CC(=O)N1CCc2cc(S(=O)(=O)CCC(=O)Nc3cccc(F)c3)ccc21
-10%	CCOC(=O)CC(NC(=O)c1ccco1)c1ccccc1Cl (stereo not given)
-6%	Cc1cccc(C)c1NC(=O)CSc1ccc([N+](=O)[O-])cn1
-12%	O=C(CCSc1nnnn1-c1ccccc1)N1CCOCC1
-9%	O=[n+]1cc(-c2cc3ccccc3o2)n([O-])c2c1CCCC2

Two successive compounds from above:
HPGD block	Structure
-2%	O=c1c2ccccc2c(-c2ccccc2)nn1Cc1c(Cl)cccc1Cl
?	CCOC(=O)c1ccc(-n2c(O)c(/C=N/NC(=O)C3COc4ccccc4O3)c3ccccc3c2=O)cc1 (stereo not given)

(cont.)
HPGD block	Structure
-6%	COc1ccccc1NC(=O)CCCC(=O)OCC(F)(F)C(F)F
-8%	CCOC(=O)CSc1nc(-c2ccccc2)nc2c1oc1ccccc12
?	COc1cc2c(cc1NC(=O)COc1ccccc1OC)oc1ccccc12
-11%	CCC(C)NCCCCOc1ccc(Cl)cc1C (stereo not given)
?	COc1cccc(/C=N/NC(=O)C(=O)N/N=C/c2cccc(OC)c2OC)c1OC
-18%	COc1ccccc1C(=O)Nc1ccc(N2CCCCC2)cc1
-4%	CCCCn1c(N)c(N(CCOC)C(=O)CSc2nc3ccc(C)cc3[nH]2)c(=O)[nH]c1=O
3%	COc1ccc(C(=O)NCCc2nnc(SCC(=O)Nc3ccccc3)n2C)cc1
5%	O=C(ON=C1CCN(S(=O)(=O)c2ccccc2)CC1)c1ccccc1
-1%	CC(CC(=O)O)CC1=NS(=O)(=O)c2ccccc2N1 (stereo not given)
-3%	COc1ccc(S(=O)(=O)N2CCCC(C(=O)NCc3ccccn3)C2)cc1Cl (stereo not given)
-18%	C/C(=N\NC(=O)C1CC1(C)c1ccccc1)c1ccco1 (stereo not given)
4%	O=c1c[n+](CC[n+]2cc(=O)o[nH]2)[nH]o1
-11%	CCCCCCCNC(=O)CC(NS(=O)(=O)c1ccc(NC(C)=O)cc1)C(C)C (stereo not given)
-5%	C=CC(=O)OCC(CO)(COC(=O)C=C)COC(=O)C=C

Single values from the results shown.
HPGD block, `O=C(ON=C1CCN(S(=O)(=O)c2ccccc2)CC1)c1ccccc1` → 5%
HPGD block, `CCCCn1c(N)c(N(CCOC)C(=O)CSc2nc3ccc(C)cc3[nH]2)c(=O)[nH]c1=O` → -4%
HPGD block, `Cc1cccc(C)c1NC(=O)CSc1ccc([N+](=O)[O-])cn1` → -6%

The list goes on:
HPGD block	Structure
?	C/C=C(/C)C(=O)O[C@@H]1c2c(ccc3ccc(=O)oc23)O[C@@H]1C(C)(C)OC(C)=O
-11%	CC1(C)CC2(CCO1)OC(=O)CC2C(=O)Nc1cccc2ccccc12 (stereo not given)
7.1µM*	O=c1cc(-c2ccc(O)c(O)c2)oc2ccccc12
-4%	COC(=O)c1ccccc1NC(=O)CSc1nnc(-c2cccc(NC(C)=O)c2)n1C
-8%	Cc1c(C(N)=O)c(-c2ccccc2)nn1-c1ccccc1
-11%	CCCCSCCCNC(=O)Nc1cccc(OC)c1
14µM*	Cc1cnc(CNc2nc(-c3ccc(C(=O)N(C)C)cc3)nc3ccccc23)cn1
-15%	CCOC(=O)c1cnc(C(C)(C)C)[nH]c1=O
-3%	CC1(C)CC(=O)C=C(N2CCNCC2)C1
-3%	Cn1nnnc1SCC(=O)Nc1ccccc1-c1ccccc1
-2%	CCOc1cc(C#N)c(NC(=O)c2ccnn2C)cc1OCC
-15%	Cc1ccc2nc(Cl)c(CN(Cc3cccs3)C(=O)C3CC3)cc2c1
-13%	N#Cc1c2n(c3c(=O)[nH]cnc13)CCCC2
?	CCOC(=O)C1CCCN(C(=O)c2cnn3c(C(F)F)cc(-c4ccc(C)cc4)nc23)C1 (stereo not given)
-8%	CC1=C(C(=O)Nc2ccccn2)C(c2ccc(Br)cc2)n2ncnc2N1 (stereo not given)

More results
HPGD block	Structure
0%	O=C(O)c1ccc2nc(C(F)(F)F)[nH]c2c1
16µM*	O=C(CC(c1ccccc1)c1ccccc1O)NCc1ccco1 (stereo not given)
-20%	COC(=O)c1ccc(-c2ccco2)n1Cc1cccc(C)c1
-2%	CNC(=O)COC(=O)c1[nH]c(C)c(C(C)=O)c1C
-16%	CCOc1ccc(C(=O)Nc2nnc(C)s2)cc1OCC
-4%	Cc1ccc(S(=O)(=O)NCC(=O)N(CC(=O)NCC2CCCO2)C2CCCC2)cc1 (stereo not given)
-13%	O=C(CN1C(=O)CCS(=O)(=O)c2ccccc21)NCc1ccccc1
-23%	COc1ccc(/C=N/NC(=O)c2cccc(NC(=O)c3ccc(Cl)cc3)c2)c(OC)c1
-15%	CNc1nc(SCc2ccccc2)nc(N2CCOCC2)n1
-4%	Cc1c(-c2ccccc2)oc2c(C(=O)OCCN3CCCCC3)cccc2c1=O
-22%	CC1CCCC(n2c(=S)[nH]c3ccccc3c2=O)C1C (stereo not given)
-6%	COc1ccc(S(=O)(=O)C(C#N)c2nc3ccccc3nc2N2CCCCC2)cc1 (stereo not given)
1%	O=P(c1cccs1)(c1cccs1)c1cccs1
-17%	COc1ccc(C2C(C(C)=O)=C(Nc3ccccc3)CC(C)(O)C2C(C)=O)cc1OC (stereo not given)
?	C/C(Cl)=C/Cn1c(SC(C)C)nc2c1c(=O)[nH]c(=O)n2C

Other records.
HPGD block	Structure
-9%	Cc1cc(C)c(C#N)c(SC2CCCCC2=O)n1 (stereo not given)
-10%	COc1ccccc1Nc1nc2ccccc2[nH]1
-12%	Cc1cccc(NC(=O)CSc2nc3ccc(NC(=O)CSc4nnnn4-c4ccccc4)cc3s2)c1C
-11%	O=C(Cn1c(=O)c2sccc2n(Cc2cccc([N+](=O)[O-])c2)c1=O)NCCc1ccccc1
-13%	COc1ccc(OCC(=O)Nn2c(-c3ccc(OC)cc3)nc3ccccc3c2=O)cc1
-13%	CCOC(=O)c1c(C)[nH]c(C(=O)COC(=O)CCS(=O)(=O)c2ccc(C)cc2)c1C
?	COc1ccc2c(c1)c(=O)oc1cc(OCC(=O)N3CCC(C)CC3)ccc12
-19%	COCCn1c(SCC(=O)c2ccccc2)nc2c(c1=O)SC(C)C2 (stereo not given)
-12%	C=CCN1C(=O)NC(c2ccc(OC)cc2)(C(F)(F)F)S/C1=C(\C#N)c1nnc(N2CCOCC2)n1-c1ccccc1 (stereo not given)
-8%	O=C(NC1CC1)C1CCCN1S(=O)(=O)c1ccc2ccccc2c1 (stereo not given)
?	CC1(C)Cc2nc(N3CCOCC3)c(C#N)cc2CO1
-8%	CCOC(=O)N1CCN(c2c(NCCc3ccc(OCC)c(OCC)c3)c(=O)c2=O)CC1
-12%	Cc1cc(Cl)ccc1NC(=S)Nc1ccccn1
-9%	CCOC(=O)CN1C(=O)C(O)(CC(=O)c2ccco2)c2ccccc21 (stereo not given)
-6%	COc1ccc(C(=O)NCc2nnc(SCC(=O)Nc3nc4ccccc4s3)o2)cc1

Carrying on:
HPGD block	Structure
-20%	O=S(=O)(CCc1nc2ccccc2s1)c1ccc2ccccc2c1
-22%	COc1cccc2cc(C(=O)Oc3ccc(NC(C)=O)cc3)c(=O)oc12
-9%	NNc1nnc(NN)c2ccccc12
-21%	Cc1ccc(S(=O)(=O)N2CCCN(S(=O)(=O)c3ccc4c(c3)OCCO4)CC2)cc1
-9%	CC1(C)CC(=O)c2sc(NC(=O)c3ccco3)nc2C1
?	O=C(Nc1ccc2c(c1)C(=O)N(CC1CCCO1)C2=O)c1cccc(Br)c1 (stereo not given)
-7%	COc1ccccc1S(=O)(=O)Cc1ccc(C(=O)N2CCN(c3ccc(C)cc3)C(C)C2)o1 (stereo not given)
-5%	COC(=O)C1=C(C(=O)OC)[C@@H]2N(C)c3ccc(OC)cc3[C@@]23C[C@@H](C(=O)OC)N(S(=O)(=O)c2cccs2)C3=N1
-3%	O=C(CN1CCN(C(=O)c2ccco2)CC1)Nc1ccccc1-c1ccccc1
-8%	N=C1/C(=C/c2cccs2)C(=O)N=C2SN=C(SCc3ccccc3)N12
-3%	COC(=O)COc1ccc(S(=O)(=O)Nc2ccc(C(N)=O)cc2)cc1Cl
16µM*	Cc1nnc(Nc2ccc(C(=O)N3CCOCC3)cc2)c2ccccc12
-23%	COc1cc(OC)cc(C(=O)N[C@H](C(=O)OCC(=O)Nc2ccc(F)c(F)c2)C(C)C)c1
16µM*	O=C(c1sc2cc([N+](=O)[O-])ccc2c1Cl)N1CCOCC1
-2%	O=C(Nc1cc(-c2nn(CC(=O)N3CCCCC3)c(=O)c3ccccc23)ccc1N1CCOCC1)c1ccc(Cl)cc1

Next compounds follow:
HPGD block	Structure
-18%	COC(=O)c1[nH]c2ccccc2c1NC(=O)CCN1CCSCC1
-17%	CC(C)NC(=O)COC(=O)/C=C/c1ccco1
-20%	Cc1ccc2cc(COC(=O)c3ccco3)c(=O)[nH]c2c1
-19%	CCOCc1nnc(NC(=O)c2cccs2)s1
-9%	CCSc1nc2c(c(=O)[nH]c(=O)n2C)n1Cc1ccc(Cl)cc1
-10%	O=C(c1cc(-c2ccccn2)nc2ccc(Br)cc12)N1CCc2ccccc2C1
-10%	Cc1cc2c(c(=O)n1CCN(C)C)C(c1ccccc1Br)C(C#N)=C(N)O2 (stereo not given)
-20%	O=c1cnc2cnc(Oc3ccccc3)nc2n1Cc1ccc(F)cc1
-28%	Cc1cc2nc(-c3ccco3)cc(C(F)(F)F)n2n1
-15%	CCn1c2ccccc2c2cc(NC(=O)COC(=O)C3CCC(=O)N3)ccc21 (stereo not given)
-6%	O=c1cc(N2CCN(c3cccc(Cl)c3)CC2)[nH]c(=O)n1C1CCCCC1
-8%	CCOC(=O)C1CCCN(C(=O)CNS(=O)(=O)c2ccc(Br)s2)C1 (stereo not given)
4%	Cn1c(N)c(C(=O)COC(=O)c2ccco2)c(=O)n(C)c1=O
16µM*	Oc1cccc(C=NCc2ccccc2)c1O
-18%	Cc1ccc(NC(=S)NCC2CCCO2)c(OC(F)F)c1 (stereo not given)

A second format for some results above:
structure	HPGD block
CC1(C)CC2(CCO1)OC(=O)CC2C(=O)Nc1cccc2ccccc12 (stereo not given)	-11%
COCCn1c(SCC(=O)c2ccccc2)nc2c(c1=O)SC(C)C2 (stereo not given)	-19%
Cc1cnc(CNc2nc(-c3ccc(C(=O)N(C)C)cc3)nc3ccccc23)cn1	14µM*
